High-throughput results deposited in PubChem BioAssay by several laboratories.
rRNA inh HTS: inhibits bacterial ribosomal RNA function over humanized ribosomes; E. coli WT GFP vs humanized-ribosome RFP mutants, fluorescence, 24 h; active compounds read low; DMSO median 0, no signal -100; AID 720706; GFP signal change (wild-type ribosome), % (no concentration beside the values); 1.6% of 350,000 active;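 active means significant combined selectivity score with lowered wild-type GFP, culture density cut under 30%, mutant RFP and density less affected; inactive means any of these conditions unmet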; further: one replicate is shown; some compounds called inactive have numbers as strong as hits
Calb FLC: C. albicans growth modulation with fluconazole; C. albicans CaCi-2 (fluconazole-resistant clinical isolate) + fluconazole, Alamar Blue growth, 48 h; growth inhibition, % (concentration not given with the values); 0.57% of 300,000 active; AID 1979;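 active means most replicates above 75%; inconclusive means exactly half above 75%; inactive means most below 75%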;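 further: all wells also contain fluconazole at 8 µg/ml as a sub-toxic cotreatment; 0% = median of DMSO wells and 100% = median of geldanamycin control wells; wells of about 8 µL received 7.5 nL stock; the first replicate is given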
AF4-AF9 inh: MLL-AF4/AF9 protein interaction inhibition; P42568; AlphaScreen, biotin-AF4 peptide binding to FLAG-AF9; inhibition, % at 10 µM; 0.47% of 350,000 active;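 active means every replicate reaching a set inhibition limit, whatever the replicate mean, cut at about 25% in these data; inconclusive means mean inhibition reaches that limit but some replicates miss it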;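 further: 0% = plate neutral control median and 100% = total signal loss; the record names both 10 and 1 µM as test concentration; the first replicate is given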
Target sequence (P42568 whole entry, looked up): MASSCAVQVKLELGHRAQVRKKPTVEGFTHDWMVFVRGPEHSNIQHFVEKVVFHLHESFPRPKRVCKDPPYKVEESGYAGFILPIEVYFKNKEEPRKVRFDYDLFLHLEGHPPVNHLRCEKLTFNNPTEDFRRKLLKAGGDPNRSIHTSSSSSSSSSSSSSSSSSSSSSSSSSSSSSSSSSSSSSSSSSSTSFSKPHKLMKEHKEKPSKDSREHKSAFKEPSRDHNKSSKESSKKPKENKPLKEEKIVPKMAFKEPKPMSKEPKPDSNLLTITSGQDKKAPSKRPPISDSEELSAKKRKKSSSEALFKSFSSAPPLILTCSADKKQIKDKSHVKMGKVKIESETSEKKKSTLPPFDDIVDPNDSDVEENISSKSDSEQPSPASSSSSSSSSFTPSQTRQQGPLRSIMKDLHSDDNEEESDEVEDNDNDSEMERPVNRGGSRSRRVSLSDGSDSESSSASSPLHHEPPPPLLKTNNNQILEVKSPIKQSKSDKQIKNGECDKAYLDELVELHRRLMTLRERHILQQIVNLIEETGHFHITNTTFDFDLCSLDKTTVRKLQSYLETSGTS
Beta apoptosis: beta cell apoptosis inhibition; INS-1E cytokine-induced death, ATP luminescence, 48 h; percent of positive-control rescue, neutral wells zero; protection from apoptosis, % (test concentration not listed); 0.8% of 300,000 active;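 active means all replicates at 75% or more, or half of them and the mean; inconclusive means half reach 75% but not the mean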;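 further: 0% = cytokine-treated negative control wells and 100% = positive control rescue; higher means more ATP so stronger rescue from cytokine killing; wells of about 40 µL received 100 nL stock; the first replicate is given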
Bfl-1 A1 inh: inhibitors of the anti-apoptotic protein A1, read as caspase activation | AID 2462 | MEF A1-2A-BIM cells, Caspase-Glo 3/7 luminescence, 3 h; percent of clofoctol response, vehicle zero | caspase activation, % (no concentration beside the values) | 0.066% of 330,000 active;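 active means over half of replicate activation scores above 10%, or exactly half above 10 with the replicate mean above 10; inconclusive means replicate mean below 10 yet half the replicates above 10; inactive means over half of replicates below 10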;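 further: wells of about 30 µL received 50 nL stock; many hits fall short of the cut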
RanGTP-Imp inh: disruptors of Ran-importin-beta complex formation – biochemical, FRET, CFP-Ran, YFP-importin-beta, homogeneous, primary screen; cell-free CFP-Ran/YFP-importin-beta FRET ratio; inhibition, % (test concentration not listed); 1.1% of 300,000 active;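 active means most replicates above 15%; inconclusive means exactly half above 15%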;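 further: 0% = DMSO wells and 100% = Ran loaded with GDP instead of GTP; wells of about 40 µL received 100 nL stock; the first replicate is given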
T cruzi inh: T. cruzi replication inhibition. 1.4% of 300,000 active. inhibition, % (concentration not given with the values). T. cruzi beta-gal in NIH3T3, luminescence, 90 h. AID 1885;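 active means mean inhibition across valid replicates above about 55%, limit read from the data; inconclusive means mean below that limit but half or more replicates reach it; inactive means mean below it, under half of replicates reach it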;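 further: signal also drops with host cell toxicity which is not excluded here; 0% = plate median of DMSO wells and 100% = zero luminescence signal; higher percent means less beta-gal luminescence so fewer parasites; stock transfer was 50 nL into about 50 µL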
Vif A3G: inhibitors of Vif binding to APOBEC3G peptide, primary screen, biochemical, TR-FRET, GST-Vif 1-94, biotin-A3G peptide, dose response retest (AID 1117319) | 0.57% of 260,000 active | TR-FRET GST-Vif / biotin-A3G peptide binding; higher % means a stronger effect; test concentration not given here; strong numbers were not always called active | inhibition, %, or IC50 in µM where a hit was titrated;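 active means above the screen mean plus three standard deviations and confirmed in dose response; inconclusive means results disagree or hit not tested in dose response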;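 further: Vif residues 1-94 fused to GST binding biotinylated APOBEC3G peptide 110-148; 0% = full assay without inhibitor and 100% = GST in place of GST-Vif; retest series ran down from 100 µM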
rRNA inh HTS OD600: also measured in rRNA inh HTS; calls as there; OD600 change, %; measured here: OD600 growth;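 optical density of the mix in the first replicate; 0 = DMSO median and -100 = no signal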
rRNA inh HTS RFP: further read-out of rRNA inh HTS, marked with its call; RFP signal change, %; measured here: RFP humanized mutant strains;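 first replicate; 0 = DMSO median and -100 = no signal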
* marks the source's active call; other numbers are inactive results; ? = inconclusive; · = not tested or not shown; & = joins results of further samples. The list is partial; the hit share may differ from the screen's.

SMILES	rRNA inh HTS	rRNA inh HTS OD600	rRNA inh HTS RFP	Calb FLC	AF4-AF9 inh	Beta apoptosis	Bfl-1 A1 inh	RanGTP-Imp inh	T cruzi inh	Vif A3G
COc1ccc(/C=C2\SC(=S)N(CCC(=O)N3CCCCC3)C2=O)cc1	3	2	-2.9	0	0.9	-16	0.1	?	-16	·
NNC(=O)COc1ccc(F)cc1	14	8	-3.5	-2	-0.2	-11	-0.8	-2.7	-3	10%
Cc1sc2nc(COC(=O)C(NC(=O)c3ccc(Cl)cc3Cl)C(C)C)[nH]c(=O)c2c1C (stereo not given)	1	6	-6.7	-6	11	-12	0.8	-6.6	2	24%
CCN1C(=O)N(CC)C2C1N(C(C)=O)C(=O)N2C(C)=O (stereo not given)	·	·	·	-16	·	-12	1.2	7.4	-19	17%
COc1cc(OC)cc(C(=O)Nc2nnc(-c3cccnc3)o2)c1	-1	-16	-3.7	-8	-2.1	2	-0.7	-1.5	-9	28%
COc1ccccc1-c1nnc(NC(=O)c2ccc(S(=O)(=O)N3CCOCC3)cc2)o1	-4	-19	-5.3	-3	3.0	-5	-0.4	0.5	0	·
COc1ccccc1C(=O)Nc1sc2c(c1C(=O)NCc1ccco1)CCCC2	·	·	·	1	·	5	0.2	-1.1	10	-11%
CCOC(=O)c1ccc(-c2ccc3c(c2)CCC3)nc1C	-3	-9	-5.2	-11	-9.6	-2	-6.3	0.1	0	-2%
Cc1cc(C(F)(F)F)nn1CC(=O)NCc1ccccc1	·	·	·	-7	·	-2	-0.1	-0.9	-3	?
CC(C)NC(=O)c1sc2nc3c(c(-c4cccs4)c2c1N)CN(C)CC3	·	·	·	-4	·	-14	0.8	-1.4	56*	30%
CC(=O)Nc1ccc(N(C(=O)CNC(=O)c2ccco2)C(C(=O)NCc2ccco2)c2ccccc2)cc1 (stereo not given)	8	5	-3.5	-16	-67	-4	-0.3	6.2	-7	-8%
COc1ccccc1C(=O)n1nc(-c2cccnc2)nc1NCc1ccccc1	-18	-1	9.9	13	-0.4	·	·	2.9	-16	-7%
Cc1ccc(NC(=O)CN2CCN(CCN=CC3=C(O)CC(c4ccc(C)cc4)CC3=O)CC2)cc1 (stereo not given)	0	-3	4.2	-7	7.6	-3	-0.4	-0.7	-4	8%
COc1ccc(OC)c(C2=NOC(C(=O)NCc3cccs3)C2)c1 (stereo not given)	13	-3	-0.6	-13	-4.7	-2	-0.1	-4.7	-16	-8%
O=C(NCc1ccco1)c1cc2nc(C3CC3)cc(C(F)(F)F)n2n1	·	·	·	12	·	0	2.1	0.1	2	13%
Cc1sc(-c2ccccn2)nc1OC(=O)c1cccc(Cl)c1Cl	·	·	·	7	·	-7	·	5.2	-5	70%
O=C(NCCN1CCCCC1)c1ccc2c(c1)OCCO2	·	·	·	?	·	-7	0.0	0.3	1	-7%
CNC[C@@H](Cc1ccccc1)NC[C@@H](CC1CCCCC1)NCCCc1ccccc1	-54	-82	-28	79*	17	110*	0.6	0.5	41	·
N#Cc1ccc(CSc2nnc3[nH]c(=O)cc(N)n23)cc1	11	5	1.1	-1	0.7	·	-0.8	1.1	-16	-2%
CN(C)S(=O)(=O)c1ccc(C(=O)NCCOc2ccc(F)cc2)cc1	-7	-7	-2.4	-7	-9.6	-2	0.6	-4.0	1	2%
NC(=O)c1ccc(N2CCN(c3ccccc3O)CC2)c([N+](=O)[O-])c1	-4	-10	0.3	2	0.0	4	0.2	4.1	11	·
Cc1nc(C(=O)NNC(=O)Nc2ccc(Cl)cc2)cs1	·	·	·	-4	-3.9	1	0.3	0.1	1	?
Cc1nnc(SCc2ccccc2)nc1/C=C/NOCc1ccc(Cl)cc1Cl	·	·	·	1	·	-11	-0.2	0.6	0	2%
COc1cccc(/C=C2\C(=O)C(=O)c3ccccc32)c1	·	·	·	30	·	3	0.0	-3.1	-10	?
COc1ccc(-c2nnc(SCC(=O)N3CCCC3)o2)cc1	3	3	-0.2	-3	1.9	4	-0.1	-0.1	-7	·
COC(=O)CNC(c1ccccc1)c1cc(Cl)ccc1NC(=O)c1cccc(Cl)c1 (stereo not given)	0	-10	-7.1	8	0.3	8	0.0	3.1	7	6%
N/C(=N\OC(=O)CSc1ccccc1)c1ccncc1	-7	-9	-1.7	7	0.4	-8	0.5	9.1	8	-8%
COC(=O)C1CCN(CC(=O)Nc2cc(Cl)ccc2OC)CC1	·	·	·	-15	·	1	0.1	0.1	55*	-4%
CCC1CCCCN1CCNC(=O)C1CCN(S(=O)(=O)c2cccc3nsnc23)CC1 (stereo not given)	20	4	-2.5	-13	-1.1	-6	-1.1	-1.2	16	·
CCc1nnc(NC(=O)Nc2ccccc2OC)s1	·	·	·	-9	·	-2	-1.7	-0.8	-5	18%
c1ccc(-c2csc(Nc3ncccn3)n2)cc1	·	·	·	-9	·	-3	-6.8	-1.6	-18	·
CCOc1ccc(C(=O)Nc2ccc(S(=O)(=O)NCC3CCCO3)cc2)cc1OCC (stereo not given)	3	11	-5.0	-1	0.0	-1	1.0	9.7	-2	5%
Cc1cc(C)cc(C(=O)NCC(=O)OCC(=O)NC2CC2)c1	8	8	1.5	·	2.4	-1	0.3	·	·	3%
COc1ccc(N2CCN(c3nc4c(C)cccn4c(=O)c3/C=C(\C#N)C(N)=O)CC2)cc1	-13	-24	0.6	-3	15	0	-0.7	?	11	25%
Cc1ccc(NC(=O)c2ccc(OC(=S)N3CCOCC3)cc2)cc1	·	·	·	-11	·	5	0.9	1.0	-1	-1%
CCOC(=O)C1=C(C)N(C)C(C)=C(C(=O)OCC)C1c1ccc(Cl)cc1	0	5	0.9	-2	0.3	-3	-2.1	1.0	10	2%
CC1=C(C(=O)OCc2ccccc2)C(c2ccc(Br)cc2)NC(=O)N1CCCC(=O)O (stereo not given)	1	-6	0.6	-3	-2.3	3	0.1	-3.9	-20	·
CCn1ncc(Br)c1C(=O)Nc1ccn(C23CC4CC(CC(C4)C2)C3)n1	·	·	·	1	·	-1	-0.1	0.2	14	-2%
CCC(C)c1ccccc1OCCCN(C)Cc1ccccc1 (stereo not given)	-51	-57	-13	-7	6.1	·	-0.2	-2.3	24	·
O=C(CCCN1C(=O)/C(=C/c2cccs2)SC1=S)NNC(=O)c1ccccc1O	·	·	·	-4	·	-6	1.3	-2.5	7	2%
CCOC(=O)N1CCN(C(=O)COC(=O)c2ccc(Cl)nc2)CC1	22	20	1.5	·	1.4	0	-0.5	·	·	-12%
COc1ccc(OC)c(/C=N/NC(=O)c2[nH]nc3c2CCc2ccccc2-3)c1	6	12	1.2	-14	-0.8	0	-1.4	0.3	3	8%
Cc1ccn2c(CNC(C)CCn3cccn3)c(C(=O)N3CCCCCC3)nc2c1 (stereo not given)	15	11	-2.5	?	1.8	-1	0.3	0.9	8	8%
CCN(CC)S(=O)(=O)c1cccc(C(=O)NCCCN2CCOCC2)c1	·	·	·	11	·	0	0.3	?	-11	-4%
CC(=O)Nc1nn(C)c2nc3ccc(C)cc3cc12	-1	14	2.5	0	0.3	-4	-1.2	8.2	1	7%
CCOC(=O)c1snc2c(=O)[nH]cnc12	·	·	·	11	·	0	-1.0	?	-17	1%
CCc1nnc(NC(=O)c2nc(S(=O)(=O)Cc3ccc(C)cc3)ncc2Cl)s1	4	0	5.4	0	1.1	·	·	1.4	-1	·
COc1ccccc1NS(=O)(=O)c1cc(NC(=O)c2ccco2)ccc1N1CCOCC1	4	-5	33	6	2.2	25	0.5	4.7	38	8%
CCn1cc(C(=O)NCCc2ccc(OC)c(OC)c2)c(=O)c2cc(S(=O)(=O)N3CCOCC3)ccc21	-4	-6	-2.1	14	1.6	7	-0.6	-1.0	7	·
COc1cccc(CN(C)C(=O)c2ccc(NS(=O)(=O)c3ccc4[nH]c(=O)[nH]c4c3)cc2)c1OC	11	9	-1.2	-8	0.9	-2	0.8	-0.4	-4	·
O=C(COc1ccc(Br)cc1)Nc1ccc(C(=O)Nc2ccccc2C(=O)O)cc1	-28*	-4.7*	0.8*	3	-5.1	3	0.6	6.1	-25	·
CC(NC(=O)c1ccc(CS(=O)(=O)Cc2ccccc2F)o1)c1ccc2c(c1)OCCO2 (stereo not given)	·	·	·	0	·	-9	-0.8	7.8	3	1%&26%
Cc1ccc2c(c1)N(CC(=O)N1CCCC(C)C1)C(=O)CO2 (stereo not given)	1	0	-0.1	-1	-1.0	2	-0.5	2.3	3	0%
CCC(NC(=O)Nc1cc(OC)c(OC)c(OC)c1)(C(F)(F)F)C(F)(F)F	·	·	·	-6	·	-1	2.4	-3.2	5	-2%
COC(=O)c1ccc(CSc2ccc3nnc(-c4cccc(F)c4)n3n2)o1	-13	-1	-4.3	-4	-1.8	-4	-0.3	4.3	7	6%
CCCCOC(=O)c1ccc(NC(=O)C(=O)NCc2cccnc2)cc1	13	10	-0.8	-9	-2.3	·	1.0	-2.5	-4	-2%
CN1CCN(S(=O)(=O)c2ccc(N(C)Cc3cccs3)nc2)CC1	·	·	·	-8	·	-5	0.9	-0.6	4	?
Cc1cc2cccc(C)c2nc1SCC(=O)NC1CCCCC1	7	13	-1.4	-7	-2.4	-5	-1.5	3.7	7	·
Cc1noc(C)c1C(=O)OCC(=O)Nc1ccc(S(N)(=O)=O)cc1	15	18	-0.7	·	1.8	2	-0.6	·	·	4%
CCCCCCCCC(=O)NC(NC(=S)N1CCOCC1)C(Cl)(Cl)Cl (stereo not given)	·	·	·	1	·	8	0.9	-1.3	12	-1%
(list continues)
SMILES	rRNA inh HTS	rRNA inh HTS OD600	rRNA inh HTS RFP	Calb FLC	AF4-AF9 inh	Beta apoptosis	Bfl-1 A1 inh	RanGTP-Imp inh	T cruzi inh	Vif A3G
O=C1C2CCCN2C(=O)N1CCN1CCN(CCO)CC1 (stereo not given)	15	11	-3.5	-14	3.4	-9	0.7	-1.4	-8	-4%
Nc1c(-c2ccc(Cl)cc2)cnc2ncnn12	·	·	·	-8	·	-2	0.3	3.1	-13	3%
COc1cc(/C=C/[N+](=O)[O-])ccc1OC(=O)/C=C/c1ccc(F)cc1	·	·	·	0	-0.9	·	1.1	5.4	41	·
Cc1cc(C)c2c(N)c(C(=O)N/N=C/c3ccccc3)sc2n1	-6	13	1.1	4	-0.6	-4	-0.9	1.5	-9	-10%
CC(C)COCC(CN(Cc1ccccc1)c1ccccc1)N1CCCC1 (stereo not given)	·	·	·	·	9.6&16	6	-0.9	5.2	2	-3%
